# Screening results as filed in PubChem BioAssay.
# RE007 growth inh = less growth of the S. pombe RE007 Vpr strain; S. pombe RE007 Vpr strain, BacTiter-Glo ATP luminescence, 24 h; control for the full effect not named in the record; Potency, µM (top dose mostly 92.2 µM), for inactives: at the top dose activity change, negative = less growth; 0.21% of 360,000 active; AID 651644; active = well fitted falling curve with a large enough effect; inconclusive = small, poorly fitted or top-dose-only effect; inactive = no such curve, though single readings can be large or run the other way;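 also: % is scaled to controls: 0 for no effect and ±100 for the full control effect; nearly all actives have a fitted effect of over 50% in size; the assay follows cell death caused by Vpr and the record does not say whether a fall means rescue or toxicity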
#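 Fission yeast RE007 carrying one integrated HIV-1 vpr copy, seeded at OD 0.01 in PMG+AL medium with 23 nL pinned compound. Grown 24 h at 30 degrees; viability read by BacTiter-Glo luminescence after 5 min.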
# MARV entry inh = inhibitors of Marburg virus binding or cell entry. Potency, µM (top dose mostly 37.8 µM), for the others: at the highest dose activity change, negative = inhibition, actives largely listed as inhibitors. Marburg virus pseudotyped entry inhibition, cell reporter; control for the full effect not named in the record; about a third of the inactives were read at about 46 µM. 1.8% of 300,000 active. AID 540276; active = well fitted inhibition curve with a large enough effect; inconclusive = small, poorly fitted or top-dose-only effect, or effect the other way; inactive = flat fitted curve, though single readings scatter; tested in HEK293 cells; about a fifth of its hits are not listed in these tables; also: % is scaled to controls: 0 for no effect and ±100 for the full control effect; luciferase read-out
# Lassa entry inh = Lassa virus entry inhibition | Lassa virus pseudotype entry inhibition, cell reporter; control for the full effect not named in the record | 1.2% of 300,000 active | Potency, µM (top dose mostly 37.9 µM), inactives show at the highest dose activity change, negative = inhibition, hits mostly inhibitors | AID 540256; active means well fitted inhibition curve with a large enough effect; inconclusive means small, poorly fitted or top-dose-only effect, or effect the other way; inactive means flat fitted curve, though single readings scatter; tested in HEK293 cells; also: % is scaled to controls: 0 for no effect and ±100 for the full control effect; nearly all actives have a fitted effect of over 50% in size; luciferase read-out
# Cruzain inh Det = blocks cruzain activity in presence of Triton detergent; P25779; purified cruzain, Z-FR-AMC fluorescence, 0.01% Triton; Potency, µM, for inactives: max response, negative = inhibition, most hits filed as inhibitors; 0.43% of 200,000 active; active = well fitted curve in the direction sought with a large enough effect; inconclusive = small, poorly fitted or top-dose-only effect, or another doubt; inactive = no such curve, though single readings can be large; an effect the other way counts as inactive or inconclusive;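 also: plate controls were neutral wells for no effect and buffer without enzyme for full effect; nearly all actives have a fitted effect of over 40% in size; top concentration of the series not given in the record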
# Target sequence (P25779 123-467 limits assumed): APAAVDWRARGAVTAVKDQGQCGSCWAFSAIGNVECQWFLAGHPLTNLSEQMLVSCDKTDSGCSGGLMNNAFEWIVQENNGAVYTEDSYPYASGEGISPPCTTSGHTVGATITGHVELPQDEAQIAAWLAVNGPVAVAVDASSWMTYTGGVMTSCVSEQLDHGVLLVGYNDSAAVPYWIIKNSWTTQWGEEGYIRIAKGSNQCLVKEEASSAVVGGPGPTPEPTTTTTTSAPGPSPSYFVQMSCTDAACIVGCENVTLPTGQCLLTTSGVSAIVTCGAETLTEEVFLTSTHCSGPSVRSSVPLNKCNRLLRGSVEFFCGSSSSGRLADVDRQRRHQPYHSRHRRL
#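 Cruzain (1.5 nM) preincubated 15 min at RT with compound in 100 mM sodium acetate pH 5.5, 5 mM DTT, 0.01% Triton X-100. Reaction started with 2 uM Z-FR-AMC; AMC fluorescence (ex 360/em 450 nm) change over 60 s gave rate.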
# 2A StopGo = FMDV 2A StopGo reporter, luciferase signal | human cells with a luciferase reporter of 2A StopGo recoding; control for the full effect not named in the record | Potency, µM (series often up to 57.9 µM), for the others: top-dose signal change, negative = less light | 1.2% of 410,000 active | AID 1159524; active = well fitted falling curve with a large enough effect; inconclusive = small, poorly fitted or top-dose-only effect; inactive = no such curve, though single readings can be large or run the other way; tested in HEK293T cells; also: % is scaled to controls: 0 for no effect and ±100 for the full control effect; nearly all actives have a fitted effect of over 45% in size; luciferase light after 4 h
# Cruzain noTriton = blocks cruzain activity in detergent-free assay; P25779; purified cruzain, Z-FR-AMC fluorescence, no detergent; Potency, µM, for the others: max response, negative = inhibition, most hits filed as inhibitors; 2.3% of 200,000 active; AID 1476; active = well fitted curve in the direction sought with a large enough effect; inconclusive = small, poorly fitted or top-dose-only effect, or another doubt; inactive = no such curve, though single readings can be large; an effect the other way counts as inactive or inconclusive;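 also: plate controls were enzyme without inhibitor for no effect and buffer without enzyme for full effect; nearly all actives have a fitted effect of over 40% in size; top concentration of the series not given in the record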
#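 Detergent-free condition (0.00005% Triton X-100) in acetate buffer pH 5.5 with DTT. 1.5 nM enzyme and compound were pre-mixed 15 min, then 2 uM Z-FR-AMC substrate added; reaction progress from fluorescence change between first and third reads (60 s).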
# NS1 inh = blocks influenza NS1 protein function; S. cerevisiae slowed by influenza A NS1, growth recovery by OD600; Potency, µM (doses to about 46.1 µM), inactives show at the top dose activity, positive = more growth; 0.4% of 270,000 active; AID 2326; also: actives are rising curves; nearly all actives have a fitted effect of over 50% in size
#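 A cell-based growth assay was used: compounds that relieve NS1-induced slow growth of budding yeast raise OD600. Assay medium was yeast nitrogen base with ammonium sulphate and -URA supplement, pH 6.0, with 2% galactose.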
# SARS PLpro yeast = blocks SARS-CoV papain-like protease in a yeast assay; Potency, µM (titrated, usually from 32.9 µM), for the others: at the top dose activity, positive = growth rescue; AID 485353; 0.19% of 330,000 active; S. cerevisiae expressing SARS-CoV PLpro, growth rescue; control for the full effect not named in the record; also: 0% is about no effect; nearly all actives have a fitted effect of over 55% in size; growth read by luminescence after 48 h
# * marks the source's active call; other numbers are inactive results; ? = inconclusive; . = no result given; & = joins results of further samples; [ ] = dose if it differs, or a comment. Unless noted, calls follow the shape of the dose curve; as a rule, active means well fitted rising curve with a large enough effect; inconclusive means small, poorly fitted or top-dose-only effect; inactive means no such curve, though single readings can be large or run the other way. Potency is read from the fitted curve at half-maximal effect.
SMILES,RE007 growth inh,MARV entry inh,Lassa entry inh,Cruzain inh Det,2A StopGo,Cruzain noTriton,NS1 inh,SARS PLpro yeast
COc1cccc(C(=O)Nc2ccccc2-c2ccccc2)c1,?,?,8%,.,-16%,.,.,0%
c1cnc(N2CCN(c3cnccn3)CC2)nc1,32%,15%[46.1 µM],3%,.,4%,.,.,0%
Cc1ccccc1NC(=O)CSc1nnc(Cc2ccccc2)c(=O)n1N,20%,27%,-19%,.,-12%,.,.,-1%
Cc1ccc(S(=O)(=O)N2CCCCC2)cc1NC(=O)Cn1c(=O)cnc2ccccc21,2%,5%[46.1 µM],-18%,.,-28%,.,0%,-4%
O=C(Nc1ccc(Cl)cc1)NC1CCCc2ccccc21 (stereo not given),5%,?,?,1.7%,-20%,?,7%,0%
Cc1[nH]c2ccc(F)cc2c1CCNC(=O)c1cc2cc(Cl)ccc2oc1=O,.,3%[46.1 µM],-5%[46.1 µM],-0.5%,?,2%,.,.
CCCCCCCCCCCCOC(=O)C[N+](C)(C)C,5%,5%[46.1 µM],18%,.,0%,.,-122%,-18%
Clc1cccc(Cl)c1-c1noc(-c2ccno2)n1,-10%,.,.,.,-10%,.,-1%,0%
COc1ccc(N2CCCC2)c(NC(=O)c2ccc(Br)o2)c1,-8%,2%[46.1 µM],-6%,.,?,.,-27%,-4%
CCc1c(C)sc2c1CCN(Cc1cccc(F)c1)C2c1ccccc1 (stereo not given),.,.,?,-9.7%,0%,-5%,.,.
COc1ccc(CNC(=O)Cn2c(=O)nc(-c3ccccc3F)c3cc(Cl)ccc32)cc1,.,.,-14%[46.1 µM],0.2%,?,-5%,.,.
COc1ccc(C(=O)N/N=C(/C)c2ccc(N3CCCCC3)cc2)cc1,-15%,1%,?,-15%,46%[activator],?,-15%,9%
O=C(CN1CCCC1)Nc1ccc(NC(=O)Nc2ccccc2Cl)cc1,-15%,23%,28%,-4.9%,49%[activator],3%,-10%,3%
COc1ccc2[nH]c3c(=O)n(CCc4ccccc4)cnc3c2c1,4%,-4%[46.1 µM],-37%[46.1 µM],.,9%,.,-3%,-1%
CC(C)(C)C(=O)Nc1cccc(-c2cc(-c3c(Cl)cccc3Cl)no2)c1,-9%,1%&1%[46.1 µM],-21%,.,-9%,.,-1%,-5%
COc1ccccc1OCC(=O)NCC1CCCN(C(=O)c2ccccc2SC)C1 (stereo not given),-3%,.,.,.,-13%,.,-14%,3%
Fc1ccc2nc(N3CCOCC3)sc2c1,6%,3%[46.1 µM],27%,.,67%[activator],.,.,-2%
COC(=O)CC1C(=O)NCCN1C(=O)c1ccc(Cl)cc1 (stereo not given),19%,-1%[46.1 µM],8%[46.1 µM],.,34%[activator],.,-5%,6%
CCOC(=O)C1CCCN(c2c(C(=O)c3ccc(C)cc3)cnc3ccc(OCC)cc23)C1 (stereo not given),.,-2%[46.1 µM],.,-0.8%,?,9%,.,.
C=CCNc1nc(C(=O)OCC(=O)c2ccc(C)c([N+](=O)[O-])c2)cs1,-16%,-1%,-22%,.,-1%,.,14%,17%
N#Cc1c(N2CCCC(O)C2)nc(N)c2c(N)nc3c(c12)CC(=O)N3C12CC3CC(CC(C3)C1)C2 (stereo not given),5%,?,8.2µM*,-15%,-26%,2%,28%,-3%
COc1ccc(C2CC(=O)Nc3c2c(=O)[nH]c2nc4ccccc4n32)cc1OC (stereo not given),.,8%[46.1 µM],5%[46.1 µM],-0.9%,-4%,-3%,.,.
C=CCOc1ccc(/C=C/C(=O)OCC(=O)NCC2CCCCC2)cc1,-10%,1%,17%,.,-6%,.,.,1%
c1coc(CNc2c3c(nc4ccccc24)CCC3)c1,-19%,?,-2%,-1.0%,?,-16%,-6%,2%
COC(=O)C1=C(C)NC(=O)CC1c1ccc(F)c(Br)c1 (stereo not given),5%,9%,-14%,-7.6%,-7%,13%,-8%,1%
CCC1(CC)Cc2ccccc2-c2nc(NCCO)[nH]c(=O)c21,10%,-20%,8%,-9.2%,-19%,24%,6%,-9%
Cc1ccc(C)c(Cn2nnc3c(=O)[nH]c(C4CCCN(C(=O)C5CCCCC5)C4)nc32)c1 (stereo not given),3%,0%&-16%,?,-16%,?,14%,-12%,2%
CCN(CC(=O)Nc1c(F)cccc1F)C(=O)c1cc2c(cc1Cl)N1CCCCCC1=NS2(=O)=O,7%,11%,0%,.,1%,.,.,0%
CC(=O)Nc1ccc(OC(=O)c2cccs2)cc1,13%,-1%,13%,1.0%,67%[activator],-4%,-5%,-13%
O=C1CCC2(CC1)NC(=O)N(c1ccccc1)N2,207%,-5%[46.1 µM],?,.,8%,.,.,-3%
CCOC(=O)c1ccc(N=C2SC(C(=O)NC)CC(=O)N2CCc2ccccc2)cc1 (stereo not given),4%,?,?,.,0%,.,0%,1%
O=c1[nH]c(/C=C\c2cccnc2)c([N+](=O)[O-])c(=O)[nH]1,-3%,11%[46.1 µM],-1%,.,-1%,.,.,-2%
O=C(/C=C/c1ccco1)NCC1COc2ccccc2O1 (stereo not given),-15%,2%[46.1 µM],0%,.,27%,.,-7%,-2%
O=C(COc1coc(CN2CCCc3ccccc32)cc1=O)Nc1cccc([N+](=O)[O-])c1,-4%,-15%,7%,.,-24%,.,.,-4%
CC1CCCC(C)N1NC(=S)Nc1ccc(OC(F)F)cc1 (stereo not given),-10%,?,-3%,2.9%,12%,-5%,48%,?
COc1cc(-c2nc(-c3ccc4c(c3)-c3ccccc3S4(=O)=O)c(-c3ccccc3)[nH]2)cc(OC)c1OC,8%,-29%,?,-0.9%,0%,-2%,28%,2%
COC(=O)c1cnn(C(=O)c2cc(OC)ccc2Br)c1N,4%,17%,?,-2.6%,-5%,2%,-24%,2%
COc1ccc(S(=O)(=O)Nc2cc(SCC(=O)O)c(O)c3ccccc23)cc1,-26%,0%,.,.,-49%,.,3%,-11%
O=C(CCSCCC(=O)NN=Cc1ccccc1O)NN=Cc1ccccc1O,-3%,?,-8%,.,28%,.,.,.
CNc1oc(-c2ccccc2Cl)nc1C#N,-9%,-3%&-3%,23%,9.8%,12%,23%,-29%,-10%
O=C(O)CSC12CC3CC(C1)CC(C(=O)O)(C3)C2,1%,-4%,1%,4.3%,-2%,6%,?,18%
COc1cccc(C2CC(c3ccccc3C)n3nc(N)nc3N2)c1 (stereo not given),12%,.,.,0.5%,-10%,-5%,12%,8%
CCC1CCCCN1C(=O)NC(=O)c1ccccc1 (stereo not given),-8%,.,.,.,-3%,.,3%,-3%
Cc1ccc(NS(=O)(=O)c2ccc3c(c2)NC(=O)CC(=O)N3)cc1C,5%,-29%[46.1 µM],25%[46.1 µM],.,8%,.,.,-2%
CCc1ccc2oc(=O)cc(CN3CCOCC3)c2c1,2%,-8%,-8%,3.2%,-8%,-8%,-4%,0%
CCN(CC)c1ccc(/C=N/NC(=O)c2cnccn2)c(O)c1,-12%,.,.,.,66%[activator],.,-4%,5%
CCCCNC(=O)c1ccc2c(c1)ncn2-c1cc(OC)ccc1OC,.,.,24%[46.1 µM],-0.7%,-7%,26%,.,.
Cc1ccc(CNc2nc3ccc(Cl)cc3n3cnnc23)cc1,.,18%[46.1 µM],18%[46.1 µM],-1.3%,-9%,3%,.,.
Cc1csc(Nc2ccccc2)[n+]1C,-18%,-8%[46.1 µM],2%,.,49%[activator],.,.,1%
CCN(CC)S(=O)(=O)c1ccc(OCC(=O)NCc2ccco2)cc1,0%,-14%[46.1 µM],-25%,.,-3%,.,3%,0%
# (listing goes on)
SMILES,RE007 growth inh,MARV entry inh,Lassa entry inh,Cruzain inh Det,2A StopGo,Cruzain noTriton,NS1 inh,SARS PLpro yeast
C/C(=N\Nc1ccc(S(=O)(=O)Nc2ccccc2)cc1[N+](=O)[O-])c1ccc(N2CCOCC2)cc1,12%,.,.,.,-3%,.,1%,0%
c1ccc(-c2nc(-c3ccc(-c4ccon4)s3)no2)cc1,5%,15%,0%,.,51%[activator],.,0%,1%
O=C(CCC(=O)Nc1ccccc1)NNC(=O)CCc1ccccc1,-20%,12%[46.1 µM],?,.,1%,.,.,6%
CCc1ccc(CN2CCC(C(=O)Nc3ccc(Oc4ccccc4)nc3)CC2)o1,11%,?,-27%[46.1 µM],.,?,.,12%,2%
CSc1ncccc1C(=O)OCc1nc2ccsc2c(=O)[nH]1,3%,0%,-1%,.,27%,.,.,1%
Cc1nn(CC(=O)NCc2ccccc2)c(=O)c2cccn12,3%,.,.,.,2%,.,-14%,1%
Cc1c(C2C(C#N)=C(N)OC3=C2C(=O)CCC3)cnn1C (stereo not given),-4%,-1%,-3%,-0.7%,-13%,12%,28%,-2%
COc1ccc(Nc2nc(N3CCOCC3)nc(N3CCOCC3)n2)cc1Cl,-9%,?,-20%,.,-28%,.,9%,0%
O=C(CSc1nc2c(sc3ccccc32)c(=O)n1CCCN1CCOCC1)NCC1CCCO1 (stereo not given),-7%,?,?,.,20%,.,.,-4%
CC(=O)N/C(=C\c1ccc(F)cc1)C(=O)NC(Cc1c[nH]c2ccccc12)C(=O)O (stereo not given),5%,17%,14%,3.6%,-12%,0%,7%,5%
COC(=O)C1=C(C)N=c2s/c(=C/c3cccs3)c(=O)n2C1c1cccs1 (stereo not given),5%,0%,4%,0.4%,?,-19%,10%,2%
CCc1nc2ccc(C(=O)N3CCN(c4ccc([N+](=O)[O-])cc4)CC3)cc2nc1CC,23%,.,.,.,?,.,2%,-3%
O=C1CCC(C(=O)Nc2cccc(Br)c2)N1 (stereo not given),0%,1%,2%,.,-12%,.,-1%,-2%
CNC(=O)/C(C#N)=C/c1c(N2CCN(c3ccccc3)CC2)nc2c(C)cccn2c1=O,0%,-25%,-3%,.,?,.,12%,-1%
Cc1ccc(C)c(NC(=O)Cc2ccc(S(=O)(=O)N3CCCCC3)s2)c1,-7%,1%,-13%,-4.8%,-27%,8%,1%,3%
